Screening results deposited in PubChem by several laboratories.
Mtb betalactam: beta-lactam sensitization of Mtb H37Rv; inhibition, % at 25 µM; M. tuberculosis H37Rv growth with meropenem, percent inhibition; hits of this screen are not shown here; 330,000 compounds, 0.27% hits;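 active = about 74% or more and at least 40 points above the plate without the antibiotic, then above 30% in a dose series; inconclusive = first-round hits that could not be retested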;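 also: growth measured after seven days incubation then overnight dye step; 0% = bacteria only wells and 100% = bacteria with antibiotic; twin plates without the antibiotic show which effects depend on it; some results filed as inactive read as strong as hits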
RecA splice inh: inhibitors of M. tuberculosis RecA intein splicing; P9WHJ3; cell-free RecA intein splicing, fluorescence; inhibition, %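 (about 9 µM by stock and volumes)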; 290,000 compounds, 0.75% hits; AID 2221; in the data active = inhibition above about 30%; inconclusive = no clear call, values can overlap the other calls;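 also: 0% = vehicle wells and 100% = reference inhibitor control wells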
Target sequence (P9WHJ3 whole entry, looked up, canonical isoform): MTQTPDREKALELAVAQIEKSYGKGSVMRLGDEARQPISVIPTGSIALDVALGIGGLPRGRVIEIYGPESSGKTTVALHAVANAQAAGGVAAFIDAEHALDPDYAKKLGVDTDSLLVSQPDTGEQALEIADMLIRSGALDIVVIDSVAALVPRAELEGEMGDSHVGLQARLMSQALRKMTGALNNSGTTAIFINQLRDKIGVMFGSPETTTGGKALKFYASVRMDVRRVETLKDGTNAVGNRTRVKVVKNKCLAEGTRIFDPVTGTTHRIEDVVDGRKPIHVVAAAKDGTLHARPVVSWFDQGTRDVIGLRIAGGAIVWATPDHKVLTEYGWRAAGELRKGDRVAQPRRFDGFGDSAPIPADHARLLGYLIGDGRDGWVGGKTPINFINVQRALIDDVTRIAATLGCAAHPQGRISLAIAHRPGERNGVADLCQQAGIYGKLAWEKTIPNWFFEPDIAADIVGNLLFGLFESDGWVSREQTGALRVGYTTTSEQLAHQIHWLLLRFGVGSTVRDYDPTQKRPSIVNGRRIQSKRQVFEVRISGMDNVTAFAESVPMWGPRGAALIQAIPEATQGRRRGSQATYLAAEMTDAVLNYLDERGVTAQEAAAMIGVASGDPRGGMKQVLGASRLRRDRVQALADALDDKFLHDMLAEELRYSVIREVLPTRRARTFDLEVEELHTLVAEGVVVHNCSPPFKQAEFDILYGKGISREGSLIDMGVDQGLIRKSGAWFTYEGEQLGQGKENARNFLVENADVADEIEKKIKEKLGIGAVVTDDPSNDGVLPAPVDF
Mtb H37Rv: M. tuberculosis H37Rv growth inhibitors, H37Rv strain (AID 1626). M. tuberculosis H37Rv growth inhibition; higher % means a stronger effect. 220,000 compounds, 0.95% hits. one-dose inhibition, % at 10 µM; IC50 in µM for titrated hits;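 active = confirmed in a dose series; inconclusive = inhibition above 80% but not taken into the dose series; inactive = below 80% or under 30% at every dose of the series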;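 also: bacteria incubated seven days before Alamar blue readout; 0% = bacteria only wells and 100% = bacteria with antibiotic wells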
YopH PTP inh: blocks Yersinia enterocolitica YopH tyrosine phosphatase | fluorescence Ex485/Em525 | inhibition, %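 (about 10 µM by stock and volumes)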 | 140,000 compounds, 0.16% hits;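 active = inhibition of 50% or more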;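 also: controls were vehicle for no effect and minimum signal wells for full effect; inactives centre near -20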
Arbovirus anti: arbovirus infection inhibition | arbovirus infection cell-based antiviral screen | inhibition, % at 10 µM | 200,000 compounds, 0.37% hits;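 active = inhibition from about 30%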;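 also: bluetongue infection of BSR cells; cell survival read as ATP light after 72 h; 0% = infected wells without compound and 100% = uninfected wells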
Arbovirus anti repeat: also measured in Arbovirus anti; calls as there; inhibition, %; measured here: 10K subset replicate screen; many hits read low in the repeat;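 first of two repeat runs on a subset; 0% = infected and 100% = uninfected wells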
* = called active by the depositor; ? = inconclusive; / = not tested or not shown; & = joins results of further samples. Not all compounds are listed. The share of hits here may be higher or lower than overall.

SMILES	Mtb betalactam	RecA splice inh	Mtb H37Rv	YopH PTP inh	Arbovirus anti	others
COc1cc(Br)c(CN2C(=O)NC3(CCCCCC3)C2=O)cc1OC	-5	0.2	/	/	/
COC(=O)c1cnc2c(C(F)(F)F)cccc2c1OC	-1	/	-1%	5	7
Cc1ccc(O)c(C(=O)c2coc(=N)c(C(=O)NC(C)C)c2)c1	3	-4.5	-10%	-35	6
Cc1ccc(S(=O)(=O)NNC(=S)NCCc2ccccc2)cc1	-6	11	0%	/	/
C=CCCC(=O)Nc1nc(C)c(-c2csc(Nc3cccc(OC)c3)n2)s1	53	7.4	6%	-28	-12
Cc1ccc(-n2ncc3c(SCc4ccccn4)ncnc32)c(C)c1	82	2.8	28%	/	3
O=C(CN(Cc1ccccc1Cl)S(=O)(=O)c1ccc(Cl)cc1)N/N=C/c1ccc(C(=O)O)cc1	3	7.3	/	/	/
COC(=O)C1CCN(C(=O)C2CCC(=O)N(CCCc3ccccc3)C2)CC1 (stereo not given)	-2	-1.5	/	/	/
Cc1cc(Cl)c(S(=O)(=O)Nc2ccc3c(c2)OCO3)cc1OCC(=O)NC1CCCCC1	9	1.7	-2%	-13	-4
O=C1CCCC2=C1Sc1ccccc1N2	-5	-2.6	-1%	/	/
CCOC(=O)c1ccc(CNC(=O)CCC(=O)O)cc1	2	1.3	-1%	-3	9
CCOP(=O)(OCC)C(Nc1ccccc1)c1ccc2c(c1)OCO2 (stereo not given)	-4	0.7	/	/	/
CC1(C)CC(=O)C=C(NNC(=O)OC(C)(C)C)C1	0	-1.3	3%	/	3
COC(=O)COc1ccc2c(c1C)O/C(=C\c1ccco1)C2=O	98	3.3	/	/	/
c1cn(-c2ccc(-c3ccnc4ncnn34)cc2)cn1	-8	-0.6	5%	/	6

Of the compounds above, two contain two or more sulfur atoms.
SMILES	Mtb betalactam	RecA splice inh	Mtb H37Rv	YopH PTP inh	Arbovirus anti	others
Cc1ccc(S(=O)(=O)NNC(=S)NCCc2ccccc2)cc1	-6	11	0%	/	/
C=CCCC(=O)Nc1nc(C)c(-c2csc(Nc3cccc(OC)c3)n2)s1	53	7.4	6%	-28	-12

The results go on:
SMILES	Mtb betalactam	RecA splice inh	Mtb H37Rv	YopH PTP inh	Arbovirus anti	others
CCCCC(=O)NC(=S)Nc1cc(C(=O)O)ccc1OC	3	0.0	9%	/	17
CCC(CC)c1nnc(NC(=O)/C=C/c2ccco2)s1	-6	-0.4	13%	-38	1
CCc1nnc(NC(=O)c2nc3nccc(C)n3n2)s1	-10	-2.1	1%	-48	18
Cn1c(O)c(C=Nc2ccc(N3CCOCC3)cc2)c(=O)n(C)c1=S	/	-3.8	1%	/	-13
COc1ccc(CCNC(=O)c2ccc3ccccc3n2)cc1OC	8	1.4	-2%	/	13
CC(CNS(=O)(=O)c1ccccc1)Sc1ncccn1 (stereo not given)	-3	0.3	1%	/	/
Cc1cccc(N2CCN(C(=S)NC3CCCCC3)CC2)c1C	-9	1.2	/	/	/
Cc1ccc(-n2nc(C(=O)O)cc2-c2ccccc2)cc1	4	-1.0	-8%	-19	3
Cc1ccc2cc(CN(CCN3CCCC3)C(=O)Nc3ccccc3)c(=O)[nH]c2c1C	-4	5.9	-2%	-10	-31
O=C(c1ccc(Cl)nc1)N1CCC(Cc2ccccc2)CC1	-13	2.0	6%	/	/
CC(C)c1ccc(NC(=S)Nc2ccc3[nH]c(=O)[nH]c3c2)cc1	-3	3.3	2%	/	/
CCOC(=O)c1cccc(NC(=O)c2ccc(NC(=O)c3ccco3)cc2)c1	1	-0.3	/	/	/
O=C(N/N=C/c1cc([N+](=O)[O-])ccc1O)c1cccc(NC(=O)c2cccc(Cl)c2)c1	7	-1.3	/	/	/
CC(C)Sc1nc(SCC(=O)O)c2c3c(sc2n1)COC(C)(C)C3	0	0.1	4%	/	/
O=C(COc1ccccc1)Nc1ccccc1NS(=O)(=O)c1cccs1	1	4.6	2%	-27	4
COC(=O)c1sc(N)c(C(=O)OC)c1COC(=O)CNS(=O)(=O)c1ccc(C)cc1	-3	1.6	-1%	-22	-4
CC(C)C(C(=O)NCc1ccccc1)N(CC1CCCO1)C(=O)CNS(=O)(=O)c1ccccc1 (stereo not given)	-6	-2.0	/	/	/
CCOC(=O)c1cnn(-c2sc(C(=O)OCC)c(C)c2C(=O)OCC)c1N	15	-3.7	6%	9	/
CC(NC(=O)C1(c2cccs2)CCOCC1)c1ccccc1 (stereo not given)	-1	1.3	-4%	-29	0
Cc1nc2cc(-c3sccc3-n3cccc3)nn2c(C)c1C	6	5.8	/	-18	-5
O=C(COC(=O)COc1ccccc1)NCc1ccco1	2	0.2	/	/	/
CC1=C(C(=O)c2ccccc2)C(c2cccc([N+](=O)[O-])c2)NC(=S)N1 (stereo not given)	2	3.1	3%	/	9
CC(C)(C)c1ccc(N2C(=O)CSC2c2cccnc2)cc1 (stereo not given)	2	-0.7	-7%	/	/
CCOC(=O)N1CCC(Nc2ncnc3c2cnn3-c2ccccc2)CC1	70	0.7	16%	-23	0
COc1ccc(N2CCN(C(=O)c3cc(-c4cc(OC)ccc4OC)nc4ccccc34)CC2)cc1	50	3.7	/	/	/
Cc1ccc(/C=C/c2onc(C)c2S(=O)(=O)N2CCC(C(=O)NC(C)(C)C)CC2)cc1	-6	-2.1	/	/	/
COc1cc(OC)cc(C(=O)N[C@H](C(=O)OCC(=O)c2ccc3c(c2)NC(=O)CO3)C(C)C)c1	-3	-0.4	-13%	13	-3
COc1ccc(CCN(C)C(=O)c2cc(-c3ccc(C)cc3)nc3ccccc23)cc1OC	-1	5.7	/	/	/
O=C1Nc2ccccc2C(O)(C(=O)NC2CC2)N1c1ccc(Cl)c(Cl)c1 (stereo not given)	-4	-0.7	-12%	17	8	Arbovirus anti repeat=3
COc1cccc(NC(=O)CSc2ccc3nnc(-c4cccnc4)n3n2)c1	?	2.3	/	/	/
NC(=O)c1ccsc1NC(=O)c1cccs1	-5	-0.4	5%	-39	3
N#CC(C(=O)NC1CCCCC1)c1nc2ccccc2nc1N1CCN(c2ccccc2F)CC1 (stereo not given)	-6	/	/	-45	0
COc1ccc(-c2nc3n(c2C)CCC3)cc1	2	0.2	-2%	/	/
O=C(NNC(=O)C1CC1c1ccccc1)Nc1cccc(Cl)c1 (stereo not given)	-12	-1.3	-2%	-7	9
COC(=O)c1cccc(C23CC4(C2)[C@H](CN(Cc2ccc(-c5ccccc5)cc2)[C@@H]4c2ccccc2)C3c2ccc(Cl)nc2)c1 (stereo not given in full)	-15	4.2	0%	/	/
COc1ccc2c(c1)NC(=O)CC(c1ccccc1)=N2	4	0.6	-11%	-4	-3
CC(C)=CCN1CCN(Cc2cccnc2)CC1CCO (stereo not given)	-2	0.1	-5%	/	-2
Cc1cc(C)c2c(c1)-c1cc(C)nn1C(c1ccc3c(c1)OCO3)N2 (stereo not given)	4	10	-3%	-23	2
O=C(CSc1ccc2nnc(-c3ccncc3)n2n1)Nc1ccc2c(c1)OCO2	0	0.5	-7%	1	4
Cc1cc(C)n2nc(C(=O)NC3CCCc4ccccc43)nc2n1 (stereo not given)	1	0.2	-3%	/	3
CCOc1cc(CC(=O)N[C@@H](CC(C)C)c2ccccc2N2CCCCC2)ccc1C(=O)O	-4	3.6	-6%&2%	/	-7
CC(C)c1ccc(C(=O)NC(=S)NCc2cccnc2)cc1	56	1.9	79%	-9	17
O=C(COc1ccccc1Cl)Nc1ccc(CN2CCOCC2)cc1	1	0.5	/	/	/
CCOC(=O)c1cnc(SCC(=O)N2CCOCC2)nc1N	-10	0.6	-7%	/	-1
C=CCC(=O)N1CCCC(C(=O)c2ccc(Cl)cc2)C1 (stereo not given)	-3	1.5	/	/	/
Cc1ccc(Nc2cc(C)nc3ncnn23)c(Cl)c1	?	-0.4	-1%	0	4
COc1cccc(-n2c(=O)c3ccccc3n(CC(=O)NCC3CCCO3)c2=O)c1 (stereo not given)	-3	1.1	/	/	/
COC(=O)c1cc(C)sc1NC(=O)c1ccco1	-6	1.4	/	/	/
O=C(CNC(=O)Cc1ccc(Cl)cc1)NCc1ccco1	4	1.8	-2%	/	-3
CC1CC(=S)Nc2ccccc2S1 (stereo not given)	-2	1.6	-12%	-10	-6
CC(=O)Nc1cc(-n2cnnn2)ccc1C	-1	0.5	-8%	/	14
CCOC(=O)C1CCCN(c2c(N3CCC(N4CCCCC4)CC3)c(=O)c2=O)C1 (stereo not given)	-12	3.8	-6%	-15	4
CCCCN=C1C([N+](=O)[O-])=CC=C2C1=NC1(CCCCC1)N2O	6	1.1	1%	-24	-5
CCOc1c(Cl)cc(CNCC(C)C)cc1Cl	-2	0.1	4%	-14	3
O=C(O)CC1=C(Nc2ccccc2)C(=O)N(c2ccccc2)C1c1ccc(Br)cc1 (stereo not given)	7	3.0	1%	/	-5
CCn1c(CCNC(=O)c2ccc(OC)cc2)nnc1SCc1ccc(Cl)cc1Cl	2	-1.8	0%	-27	-13
O=C(Cc1ncc(C(F)(F)F)cc1Cl)NCCc1ccccc1	8	-1.7	5%	/	5
COc1ccc(-n2c(SCC(=O)NCCC(C)C)nc3ccsc3c2=O)cc1	-1	-0.5	-5%	1	0
Cc1ccc(-c2ccc(SCC(=O)Nc3nonc3C)nn2)cc1	98	1.2	1.8µM*	-199	-28
C/C(=N\NC(=O)CSc1nc(C)cc(C)n1)c1cccc([N+](=O)[O-])c1	-6	0.9	-5%	-10	-7
(list continues)
SMILES	Mtb betalactam	RecA splice inh	Mtb H37Rv	YopH PTP inh	Arbovirus anti	others
O=C(COC(=O)C1CC1)NCc1ccccc1Cl	/	0.7	1%	-20	-1
CCSc1nc2ccccc2n1CC(=O)O	-7	3.6	-2%	/	-4
O=S(=O)(c1ccc(Cl)c(Cl)c1)N1CCc2nc3ccccc3n2CC1	/	2.3	/	-18	-3	Arbovirus anti repeat=2
CN1CCC(=NNC(=O)COc2ccc(Cl)cc2)CC1	0	-0.5	2%	/	7
Cc1ccc(NC(=S)NCc2ccc(F)cc2)c(C)c1	5	-2.7	/	/	/
O=C(CSc1nc(-c2ccco2)cc(C(F)(F)F)n1)Nc1cccnc1	-5	-1.0	-6%	-7	-20
CCOc1c2ccc(C(=O)NCCCCc3ccccc3)cc2nn1C	-2	0.5	-5%	-24	-6
CCCn1c(SCC(=O)N(CC)CC)nnc1-c1ccncc1	-2	-0.8	1%	/	8
OCC1(CCOc2ccccc2)CCN(Cc2cc(Cl)ccc2O)CC1	2	0.2	/	/	/
COc1ccc(N(CC(=O)NCCc2ccccc2)C(=O)c2csnn2)cc1OC	4	0.5	/	/	/
Cc1nc2ncccn2c1-c1csc(NCc2ccco2)n1	-4	4.1	13%	-12	4
C/C=C(/C)C(=O)Nc1cccc(C2=NOC3(C2)C[C@@H](C(N)=O)N(C(=O)CC(c2ccccc2)c2ccccc2)C3)c1 (stereo not given in full)	73	5.9	10%	/	/
Cc1cccc(C(C)(C)C)c1OCCOCCN1CCCC1	7	-1.1	-3%	-19	-13
O=C(CCNc1ccccc1)c1ccc2c(c1)OCO2	-5	-1.9	-7%	6	-1
CCS(=O)(=O)c1ccc2oc(SCC(=O)NC34CC5CC(CC(C5)C3)C4)nc2c1	9	3.1	1%	-21	6
CCCC(=O)Nc1ccc(NC(=O)c2ccccn2)cn1	0	-0.5	0%	-36	-4
CN(C)S(=O)(=O)N1CCC(Oc2cccc(C(=O)NCCCC3CCCC3)c2)CC1	-8	5.1	/	/	/
Cc1ccc(NC(=O)Nc2ccc3c(c2)OCO3)nc1	7	/	0%	/	-3
O=C1C=C(Nc2ccccc2C(=O)O)c2ccccc2C1=O	17	97*	2%	/	/
CCc1nnc(SCC(=O)Nc2ccc(NC(C)=O)cc2)n1-n1cccc1	-8	-2.1	/	/	/
Oc1ccc(N2Cc3ccccc3C2)cc1	-5	-0.8	/	/	/
Cc1nc2cc(-c3ccccc3)sc2c(=O)n1N	7	2.1	-2%	/	-16
COc1ccc(C(C)=O)cc1COC(=O)c1cccnc1Cl	-4	0.6	/	/	/

7 compounds picked at random from the list so far:
SMILES	Mtb betalactam	RecA splice inh	Mtb H37Rv	YopH PTP inh	Arbovirus anti	others
Cc1ccc(NC(=O)Nc2ccc3c(c2)OCO3)nc1	7	/	0%	/	-3
O=C1C=C(Nc2ccccc2C(=O)O)c2ccccc2C1=O	17	97*	2%	/	/
CCc1nnc(SCC(=O)Nc2ccc(NC(C)=O)cc2)n1-n1cccc1	-8	-2.1	/	/	/
CCCC(=O)Nc1ccc(NC(=O)c2ccccn2)cn1	0	-0.5	0%	-36	-4
COc1ccc(C(C)=O)cc1COC(=O)c1cccnc1Cl	-4	0.6	/	/	/
Cc1nc2cc(-c3ccccc3)sc2c(=O)n1N	7	2.1	-2%	/	-16
Oc1ccc(N2Cc3ccccc3C2)cc1	-5	-0.8	/	/	/
